# TAR Tat displ: HIV-1 TAR-Tat binding disruption | z-score (no concentration beside the values) | HIV-1 TAR RNA, Tat peptide displacement FRET; active compounds read high | 100,000 compounds, 0.6% hits | AID 1259389;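 also: score is relative to mean and SD of negative controls; some compounds called inactive have numbers as strong as hits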
# CDC25B CDK2 inh: human CDC25B-CDK2/CyclinA binding inhibition | HTRF CDC25B-CDK2/CyclinA binding, anti-His/anti-Flag; active compounds read high | z-score (concentration not given with the values) | 94,000 compounds, 0.72% hits | P30305+P24941;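 also: score is relative to mean and SD of negative controls; strong numbers were not always called active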
# Starred values were filed as active, the others as inactive; · = not tested or not shown.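 The calls were made as follows: active = z-score from 3 up in half or more of its runs; inactive = the rest.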
SMILES,TAR Tat displ,CDC25B CDK2 inh
O=C(Cn1cc(S(=O)(=O)c2ccccc2)c(=O)c2cc(F)ccc21)Nc1ccc2c(c1)OCO2,0.42,-0.47
COc1cc(OC)c(NS(=O)(=O)c2ccc(-c3cnc(C4CC4)o3)cc2)cc1Cl,1.62,·
Cc1ccc2scc(N3CCC(Cc4ccccc4)CC3)c(=O)c2c1,0.02,·
COc1cc(CNCCSc2nnnn2C)cc(Cl)c1OCc1ccccc1F,2.07,-1.53
Clc1ccc(-n2cc(-c3ccccc3)c3c(NCc4ccco4)ncnc32)cc1,0.02,-2.72
CC1(C)Cc2c(sc3nc(SCC(N)=O)n(-c4ccccc4)c(=O)c23)CO1,2.99,-1.4
CCc1ccccc1NC(=O)Nc1c(C)n(C)n(-c2ccccc2)c1=O,0.55,-1.82
Cc1ccccc1OCCCCn1c(CCCO)nc2ccccc21,0.73,1.89
CCC(C)NC(=O)c1noc(C)c1Cn1nc(C)cc1C (configuration not stated),0.99,·
Cc1ccc(COC2CN(S(=O)(=O)c3cccc4nsnc34)C2)cc1,-5.09,·
CCOC(=O)C1CCCN(c2ncnc3c2nnn3C)C1 (configuration not stated),2.09,·
CC(=O)c1sc2nc(=O)c(C)nn2c1C,·,-2.08
CCC(CO)Nc1ncnc2c1cnn2-c1cc(Cl)ccc1C (configuration not stated),1.32,·
Fc1ccccc1CN1CCc2nc(N3CCN(c4ccccc4F)CC3)ncc2C1,-0.25,·
Fc1ccccc1N1CCN(c2cnc3ccccc3n2)CC1,1.13,·
COc1ccc(OC)c(N2C(N)=NC(N)=NC23CCCC3)c1,·,0.66
O=C1CC(c2ccc(Cl)cc2)Sc2nc(-c3ccc(F)cc3)nn21 (configuration not stated),·,-1.51
CS(=O)(=O)c1ncc(Cl)c(C(=O)Nc2c(C(=O)Nc3ccccc3)oc3ccccc23)n1,0.9,-0.5
O=S1(=O)C[C@H](NCCc2ccc(F)cc2)[C@@H](S(=O)(=O)c2ccc(F)cc2)C1,1.39,0.36
O=C1CC(N2CCN(c3ccccc3F)CC2)C(=O)N1c1cccc(Br)c1 (configuration not stated),·,-1.7
CC(=O)c1cccc(NC(=O)c2c(Cl)cccc2Cl)c1,·,-1.57
O=C(O)c1ccc2c(c1)C(=O)N(c1cccc(-c3nc4ccccc4s3)c1)C2=O,·,-1.22
O=C(CN1C(=O)CCCc2ccccc21)NCC1CCCO1 (configuration not stated),0.66,·
CC[C@@]1(O)C[C@H](O[C@H]2C[C@H](N(C)C)[C@H](O[C@H]3C[C@H](O)[C@H](O[C@H]4CCC(=O)[C@H](C)O4)[C@H](C)O3)[C@H](C)O2)c2c(cc3c(c2O)C(=O)c2c(O)cccc2C3=O)[C@H]1C(=O)OC,1.31,·
CCOC(=O)C1(C(=O)OCC)CCC(=NO)CC1,·,-2.08
O=C1N2CN(Cc3ccccc3)CN=C2SC1(CO)CO,1.72,-0.49
Cn1c(=O)c2c(nc(NCC(O)c3ccccc3)n2C)n(C)c1=O (configuration not stated),1.1,-0.74
CCCc1c(C)nc2ncnn2c1N1CCN(Cc2ccccc2)CC1,0.14,-1.89
COc1ccc(-n2nc3c(=O)[nH]nc(C)c3c2C)cc1,-0.55,0.25
O=C1CC(Cc2ccc(Cl)cc2)C(=O)N1c1ccccc1 (configuration not stated),2.28,-1.3
O=C(CSc1nccn(-c2cccc(F)c2)c1=O)NC1CCCC1,0.55,·
COc1ccc(NC(=O)c2cc(C(F)(F)F)cc(C(F)(F)F)c2)cn1,·,-1.84
CSc1ccc(-c2noc(Cn3c(=O)[nH]c4cc5c(cc4c3=O)OCO5)n2)cc1,1.04,·
CCOCCCNc1nc2ccccc2n2nnnc12,2.28,-0.63
c1ccc2c(N3CCOCC3)nc(N3CCOCC3)nc2c1,·,-2.72
N/C(=N\OC(=O)CCOc1ccc(F)cc1)c1ccc([N+](=O)[O-])o1,·,-2.63
Cc1ccc(-c2cnc(C3CC3)o2)cc1S(=O)(=O)Nc1ccccc1Cl,0.47,·
O=C(COc1ccc(Br)cc1)Oc1cccc(-n2cnnn2)c1,1.6,0.78
Cc1ccc(CSc2nnc3c(n2)OC=Nc2ccccc2-3)cc1,1.24,-0.31
Cc1ccc(C)c(OCCOc2ccccc2/C=C2\SC(N)=NC2=O)c1,·,-2.71
CCOc1ccc(Nc2cc(C)nc(SC)n2)cc1,0.09,-2.52
N/C(CS(=O)(=O)Cc1ccc(F)cc1)=N\OC(=O)c1cccs1,·,-0.9
CC(C)CC1(C)NC(=O)N(c2ccccc2)N1 (configuration not stated),·,0.4
Cc1[nH]c2ccc(Cl)cc2c(=O)c1CN1CCCC(C)C1 (configuration not stated),1.07,-0.82
O=C1C=C(c2ccccc2)CN(C2CCCCC2)C1=O,·,-1.7
CCCOc1ccc2c(c1)sc1ncc(NC(=O)c3ccc(C(C)(C)C)cc3)c(=O)n12,0.06,-1
COc1cc(C2/C(=C(/O)c3ccc(C)cc3)C(=O)C(=O)N2CC(C)O)ccc1O (configuration not stated),-0.72,-0.81
COc1ccc(C2=NNC(=O)CC2)cc1,3.73,-1.34
CC(C)c1nc(SCC(=O)N2CCOCC2)c2c(=O)n(C)c(=O)n(C)c2n1,0.33,·
CCN(CC)CCCNC(=O)c1cc2c(s1)-c1ccccc1OC2,·,-0.77
Cc1ccc(-n2c(SCc3nc(-c4cccs4)no3)nnc2-c2ccncc2)cc1,2.3,-0.49
COC(=O)c1ccc2c(=O)n3nc(Nc4cc(OC)ccc4OC)sc3nc2c1,0.56,·
Cc1cc(C)c(Cn2c3ccccc3c3cnn(CC(=O)NC4CC4)c(=O)c32)c(C)c1,0.26,-3.39
COc1ccc(OCC(O)Cn2c(N3CCN(C)CC3)nc3c2c(=O)n(C)c(=O)n3C)cc1 (configuration not stated),·,-4.35
O=C1CCCc2cc(S(=O)(=O)Nc3ccccc3)ccc2N1,0.94,·
CCCCCNc1nc(CCC)c2c(c1C#N)CC(C)(C)OC2,-0.42,-1.22
CCN(CC)C(=O)c1nn(C)c2c1CSc1ccccc1-2,0.89,-0.18
Cc1ccc2[nH]cc(NC(=O)NCC3CCCO3)c(=O)c2c1 (configuration not stated),-1.71,-0.71
C=CCN1CCc2c(cc(O)c(O)c2Br)[C@@H](c2ccccc2)C1,·,-1.14
CC(=O)Oc1ccc(Br)cc1C1OC(c2ccc(C)o2)=NN1C(C)=O (configuration not stated),1.16,·
# Continued:
SMILES,TAR Tat displ,CDC25B CDK2 inh
Cc1cc(-c2ccc(C)c(S(=O)(=O)N(C)c3ccc(C)c(C)c3)c2)on1,2.02,·
Cn1c(=O)n(C)c2cc(CNCc3cccs3)ccc21,-1.52,-0.17
CCN(CC)S(=O)(=O)c1ccc2c(c1)N(CC(=O)NC(C)C)C(=O)C1CCCCN21 (configuration not stated),2.8,·
CCc1cc(Nc2ccc(F)cc2)n2ncnc2n1,0.5,-1.18
Cn1ncc2c(NCCC(c3ccccc3)c3ccccc3)ncnc21,0.67,·
CCc1cc(Nc2cccc(OC)c2)n2ncnc2n1,2.38,-0.92
Cc1c(C(=O)N2CCCC2)sc2nc3n(c(=O)c12)CCCCC3,1.18,·
CSc1nc(N2CCOCC2)c2c(c1C#N)CC(C)(C)OC2,·,-1.87
Cc1ccc2[nH]c(=O)c(-c3noc(CCCC(N)=O)n3)cc2c1,0.56,0.11
COc1ccc(OCC(=O)N2CCN(C(=O)c3ccco3)CC2)cc1,0.5,-0.31
Cc1ccc(C2N(Cc3ccccc3)CCN2Cc2ccccc2)o1,·,-1.63
CCN(CC)c1ccc(Nc2nc(-c3c(C)nc4sccn34)cs2)cc1,1.47,-1.41
COc1ccc(-c2nc3c4ccccc4ccn3c2CN2CCOCC2)cc1OC,0.5,1.95
CCCCN(C(=O)c1nn(C)c2c1CSc1ccccc1-2)C1CCN(C(C)=O)CC1,0.87,-0.44
Cc1ccc(N2C(N)=NC(N)=NC2(C)C)c(C)c1,·,-1.41
Cc1cccc(-n2ncc3c(NCC4CCCO4)ncnc32)c1 (configuration not stated),1.66,·
Cc1c(C(=O)NCC(c2ccco2)N(C)C)oc2ccc(Cl)cc12 (configuration not stated),1.22,-2.39
O=C(CCCCn1c(=O)[nH]c2ccsc2c1=O)N1CCN(c2ccc(F)cc2)CC1,-1.85,-1.8
Cc1cc(NC(=S)NC(C)(C)C)ccc1Br,·,-1.1
Cc1ccccc1-c1cc(N2CCN(S(=O)(=O)c3cccc4nsnc34)CC2)ncn1,1.2,·
Cc1cc(C)nc(SCC(=O)c2ccccc2)n1,1.39,-3.34
O=C(CC1SC(=O)N(Cc2ccc(Cl)cc2)C1=O)Nc1nccs1 (configuration not stated),·,-1.21
Cc1cc(Nc2ccccc2C)c2cccc(C)c2n1,1.04,1.24
Cc1ccccc1N1CSC2=C(C#N)C(c3ccccc3)CC(=O)N2C1 (configuration not stated),-1.57,5.36*
Cc1cc(NS(=O)(=O)c2ccc(NC(=O)c3nccnc3C(=O)O)cc2)no1,·,0.53
Cc1noc2ncnc(N3CCC(C(=O)N4CCc5ccccc54)CC3)c12,2.3,·
COc1ccc(C(=O)Nc2ccc(N3CCN(c4ncccc4C(F)(F)F)CC3)nc2)cc1,·,0.41
Cc1ccc(-c2c(Nc3ccc(F)c(Cl)c3)c(=O)c2=O)cc1,1.96,·
Cc1c2c(=O)n(-c3ccccc3)[nH]c2cc(=O)n1Cc1cccs1,-0.55,-2.92
CCN(C(C)=O)c1nc2c3ccccc3n(C(C)=O)c2s1,1.19,-1.94
COc1cccc(-c2noc(N3CCN(c4ncccn4)CC3)n2)c1,-0.84,·
N/C(=N\OC(=O)C1CCCS1)c1ccc(C(F)(F)F)cc1 (configuration not stated),·,-2.67
Cc1ccc(-c2noc(CN(C)S(=O)(=O)c3ccc(C)cc3)n2)cc1,1.66,1.01
O=C(O)C1CCCN1S(=O)(=O)c1ccc(Cl)cc1 (configuration not stated),2.04,-1.33
CC1(C)Cc2c(sc3nc(-c4ccccc4)[nH]c(=O)c23)CO1,2.59,-0.59
COc1ccc(-c2nnc3c4ccccc4c(C)nn23)cc1S(=O)(=O)NC1CCCCC1,2.08,-2.16
Cc1cc(S(=O)(=O)NCCc2csc3nc(-c4cccs4)nn23)ccc1F,-0.34,·
Cc1cc2nc(COC(=O)COc3ccccc3C)cc(=O)n2o1,-0.08,·
Nc1nc(SCc2cc(=O)n3c4c(sc3n2)CCCC4)n[nH]1,-0.17,·
CCNc1ncnc2onc(-c3ccc(Cl)cc3)c12,1.28,-0.24
CCN(CC)c1ccc(NC(=O)Cn2nc(C)n3cccc3c2=O)c(C)c1,0.29,-0.26
CC1=C(C(=O)N(CC(=O)NCc2ccco2)c2ccc(Cl)cc2)SCCO1,-0.03,-0.64
Cc1oc(-c2cccs2)nc1CS(=O)CC(=O)NCc1ccc2c(c1)OCO2 (configuration not stated),·,-0.32
N#CCC(=O)N1CCSCC1,·,0.66
Cc1cc(C)c(NC(=O)C(C)Sc2nc3c(c(=O)[nH]2)CCCC3)c(C)c1 (configuration not stated),1.74,-1.56
Cc1nnc(NC(=O)CSCc2cc(=O)c3cc(F)ccc3[nH]2)s1,-0.53,·
Cc1cccn2c(=O)c(C(=O)N3CCCCC3C)cnc12 (configuration not stated),0.34,·
COCCN(Cc1cccs1)S(=O)(=O)c1cc2c(cc1C)NC(=O)CO2,2.31,·
Cc1cccc(-c2nc3scc(CCNS(=O)(=O)c4cc(C)ccc4C)n3n2)c1,-0.68,·
Nc1c(C(=O)N2CCCCC2)sc2nc3c(cc12)CCCCC3,·,0.2
Cn1cc(Br)c(NC(=O)CSc2cc(C(F)(F)F)cc(C(F)(F)F)c2)n1,·,-0.21
COc1ccc(C(=O)COC(=O)c2ccc3c(c2)OCCO3)cc1,0.3,-1.33
Cc1nnc(N2CCN(C(=O)Nc3ccc(Cl)cc3)CC2)c2nn(-c3ccccc3)c(C)c12,0.36,·
CCOC(=O)/C(C#N)=C/Nc1ccccc1C(=O)NCCc1ccc(Cl)cc1,·,-1.12
CC(C)C(=O)Nc1ccc2nc(NS(C)(=O)=O)sc2c1,-0.57,·
CCN1CCN(C(=O)C(C)n2sc3ccccc3c2=O)CC1 (configuration not stated),2.76,-2.57
CC1(C)CCC(C)(C)NC(SCc2cccc(C(F)(F)F)c2)=N1,·,-1.76
C=CCn1c(=O)[nH]c2nc3cc(NC(C)=O)ccc3nc2c1=O,-3.2,0.14
CNC(=O)COCc1cc(-c2cccs2)on1,0.68,·
COc1ccc(-c2nc(=S)c3c([nH]2)Oc2c(cccc2OC)C3)cc1,-2.21,-1.83

# Part of the list above in order of count of non-hydrogen atoms, rising:
SMILES,TAR Tat displ,CDC25B CDK2 inh
COCCN(Cc1cccs1)S(=O)(=O)c1cc2c(cc1C)NC(=O)CO2,2.31,·
CC1=C(C(=O)N(CC(=O)NCc2ccco2)c2ccc(Cl)cc2)SCCO1,-0.03,-0.64
Cc1oc(-c2cccs2)nc1CS(=O)CC(=O)NCc1ccc2c(c1)OCO2 (configuration not stated),·,-0.32

# Quoted from the listing.
# In CDC25B CDK2 inh, `COc1ccc(-c2nc(=S)c3c([nH]2)Oc2c(cccc2OC)C3)cc1` is entered as -1.83
# In TAR Tat displ, `COCCN(Cc1cccs1)S(=O)(=O)c1cc2c(cc1C)NC(=O)CO2` is entered as 2.31

# Filtered by structure: the entries above containing a COOH group
SMILES,TAR Tat displ,CDC25B CDK2 inh
O=C(O)c1ccc2c(c1)C(=O)N(c1cccc(-c3nc4ccccc4s3)c1)C2=O,·,-1.22
Cc1cc(NS(=O)(=O)c2ccc(NC(=O)c3nccnc3C(=O)O)cc2)no1,·,0.53
O=C(O)C1CCCN1S(=O)(=O)c1ccc(Cl)cc1 (configuration not stated),2.04,-1.33

# Entries of single compounds, looked up by structure:
# `C=CCn1c(=O)[nH]c2nc3cc(NC(C)=O)ccc3nc2c1=O` across the screens: TAR Tat displ = -3.2; CDC25B CDK2 inh = 0.14
# `Cc1oc(-c2cccs2)nc1CS(=O)CC(=O)NCc1ccc2c(c1)OCO2` (configuration not stated) across the screens: TAR Tat displ = ·; CDC25B CDK2 inh = -0.32

# Source: PubChem (Center for Chemical Genomics, University of Michigan)
